Compound activity as filed in PubChem BioAssay.
AmpC inh no det – AmpC beta-lactamase inhibition, detergent-free assay. P00811. AmpC nitrocefin hydrolysis, absorbance 480 nm, no detergent; potencies from a single point are estimates. Potency, µM (highest dose often 28.7 µM), inactives show at the top dose activity change, negative = inhibition. actives 1.8% (n = 71,000); active = falling curve, for most hits resting on a single point; inconclusive = weak or doubtful change; inactive = flat or rising curve; further: % of control where 0% means no effect; about half of the hits show no inhibition at the top dose; a quarter of the inactives give rising signals
Target sequence (P00811 whole entry, looked up): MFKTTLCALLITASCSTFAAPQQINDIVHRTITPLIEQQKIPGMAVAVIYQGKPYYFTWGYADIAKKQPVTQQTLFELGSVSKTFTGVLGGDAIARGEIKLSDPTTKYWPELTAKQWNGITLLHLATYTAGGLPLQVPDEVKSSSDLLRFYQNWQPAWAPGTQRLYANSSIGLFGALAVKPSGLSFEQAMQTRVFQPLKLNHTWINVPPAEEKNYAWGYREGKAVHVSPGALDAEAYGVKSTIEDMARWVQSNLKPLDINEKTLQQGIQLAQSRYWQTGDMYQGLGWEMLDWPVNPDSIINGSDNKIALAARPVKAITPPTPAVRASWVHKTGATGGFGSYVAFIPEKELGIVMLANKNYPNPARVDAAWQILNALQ
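AmpC, 20 mM phosphate pH 7.0; 15 min cpd preinc, RT; start with nitrocefin (800 uM stock); A480 kinetic read, 20 s intervals, 4 min. No-enzyme wells = negative control.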
* hit, by the source's call; [ ] = another dose, or the depositor's remark. Potency means the concentration at half of the fitted maximal effect. These rows are one share of the data (hit frequency here may not be typical).

SMILES	AmpC inh no det
CCOc1cc(C(=O)NCCOC)ccc1OC	7%
O=C(O)CC1Oc2ccc(Cl)cc2NC1=O (centres undefined)	1%
COCCn1c(=O)c(CCc2ccccc2)nc2cnc(N3CCNCC3)nc21	73%
CN(C)c1ccc(-c2cc(NCc3ccccc3)ncn2)cc1	21%
COc1ccc(N2CCN(C(=O)Cn3nnc(-c4cccs4)n3)CC2)cc1	21%
CN(CCCNC(=O)CN1C(=O)CC(C)(C)S(=O)(=O)c2ccccc21)C1CCCCC1	1%
COc1ccc(C2/C(=C(\O)c3cc(C)ccc3C)C(=O)C(=O)N2CCN(C)C)cc1OC (centres undefined)	0%
O=C(NCc1ccc(N2CCCC2=O)cc1)c1cn(CCc2ccccc2)nn1	23%
CC(=O)C1C2c3ccccc3OC1(C)N=c1s/c(=C/c3cnn(C)c3)c(=O)n12 (centres undefined)	108%
COC(=O)Nc1nnc(Cc2ccc(OC)cc2)s1	11%
O=C(Nc1cc2nn(-c3ccccc3)nc2cc1Cl)c1ccco1	-2%
OCc1n[nH]c(CO)n1	-13%
Cn1nnnc1SCC(=O)c1c(N)n(C)c(=O)n(C)c1=O	-2%
CCOc1ccccc1-n1c(COc2ccc(C)cc2)nnc1SCC(N)=O	86%
CC(C(=O)OCc1nnc(-c2ccccc2)o1)N1C(=O)c2ccccc2C1=O (centres undefined)	21%
COC(=O)c1ccc(NC(=O)NS(=O)(=O)c2ccc(C)cc2)cc1	0%
CCOC(=O)C1=C(C)NC(=O)NC1c1ccc(OCCO)c(OC)c1 (centres undefined)	2%
Cc1nc(N2CCc3ccccc3C2)[nH]c(=O)c1CCC(C)C	-5%
c1ccc(-c2nnnn2CCOCCn2nnnc2-c2ccccc2)cc1	14%
O=c1c2c3nc4ccccc4nc3n(-c3ccc4c(c3)OCCO4)c2ncn1C1CCCC1	92%
COCCN(CC(=O)Nc1ccccc1)S(=O)(=O)c1ccc(S(=O)(=O)N2CCCC2)cc1	97%
CCNc1ncc2nc(-c3cn(C)c4ccccc34)c(=O)n(Cc3cccc(OC)c3)c2n1	6%
ClC(Br)Br	4%
O=C(Nc1cc(Cl)ccc1N1CCOCC1)c1cnccn1	62%
CC(C)(C)NC(=O)CN(C(=O)C1CSC(=O)C1)c1ccc2c(c1)OCCO2 (centres undefined)	4%
CC(=O)N(Cc1ccccc1)c1ncc2c(n1)c(=O)c(C#N)c1ccccn12	0%
Nc1c(C(=O)OCC2CCCO2)c2nc3ccccc3nc2n1C1CCCCC1 (centres undefined)	65%
O=C(O)CCCCC1CCSS1 (centres undefined)	-16%
O=C(NC1CCCC1)C1CCCN1S(=O)(=O)c1cccc2cccnc12 (centres undefined)	22%
Nn1c(SCC(=O)Nc2ccc(F)cc2F)nnc1-c1cccnc1	88%
CCCCCn1c(CN2CC(C)OC(C)C2)nc2c1c(=O)n(C)c(=O)n2C (centres undefined)	41%
Cc1c(C(=O)OCC2CCCO2)[nH]c2c1C(=O)CC(c1ccc(N(C)C)cc1)C2 (centres undefined)	0%
COc1ccc(OCC(=O)Nc2ccccc2C(=O)N2CCCC2)cc1	12%
Cn1[nH]c(=O)c2ccccc2c1=O	-1%
CCOC(=O)C1CCN(C(=O)CCCCn2c(=O)[nH]c3ccccc3c2=O)CC1	28%
O=C(Nc1nn[nH]n1)c1cccc(Oc2ccccc2)c1	-6%
Nc1c[n+](N2CCOCC2)no1	-9%
COCCNC(=O)CN(C(=O)Cn1nnc2ccccc21)c1ccccc1	-8%
CC(C)CC(=O)N1CCN(S(=O)(=O)c2ccc(F)cc2)CC1	14%
CN(C(=O)c1cccc(C#N)c1)c1nnc(C2CCCO2)s1 (centres undefined)	4%
Cn1ncc2c(Nc3ccc(-c4ccccc4)cc3)ncnc21	45%
O=C(CSc1ncccn1)NCc1ccc(F)cc1	-6%
Cc1[nH]nc2c1C(c1ccccn1)N(c1ccc(Br)cc1)C2=O (centres undefined)	14%
Cc1cccc(-c2noc(CN(C(=O)c3c(-c4ccccc4Cl)noc3C)C(C)C)n2)c1	59%
Cc1cc(C)c2c(CN3CCN(C/C=C/c4ccccc4)CC3)cc(=O)oc2c1	99%
COC(=O)c1nc(N)sc1-c1ccccc1	2%
Cc1cc(NCCOCCO)n2ncc(-c3ccc(Cl)cc3)c2n1	100%
O=C(CN1CCCCC1)Nc1ccccc1NC(=O)CN1CCCCC1	7%
CC(C)CN1CCCC2(CCN(S(=O)(=O)c3ccccc3)CC2)C1	16%
Cc1nc(SCC(=O)Nc2ccc(F)cc2)c2oc3ccccc3c2n1	23%
C=CCOc1cccc(C2C(C(=O)c3ccc(C)o3)=C(O)C(=O)N2CCN(C)C)c1 (centres undefined)	7%
Cc1cccc(N2CCN(C(=O)CCNS(=O)(=O)c3ccc4c(c3)CCC(=O)N4)CC2)c1C	104%
CCOC(=O)c1sc(NC(=O)COC(=O)Cn2cnc3ccccc32)c(C(=O)OCC)c1C	85%
COc1ccc(NC(=O)c2cccc(NC(=O)C3C4CC5OC(=O)C3C5C4)c2)c(OC)c1 (centres undefined)	-1%
Cc1nc2ccccc2n1CC(=O)N1CC(=O)Nc2ccccc21	4%
Cc1noc(C)c1-c1cncnc1N(C)Cc1ccco1	3%
Nc1c(C(=O)OCC2CCCO2)c2nc3ccccc3nc2n1Cc1cccs1 (centres undefined)	74%
CN1CCc2nc(N)nc(-c3nc(N)nc4c3CN(C)CC4)c2C1	-2%[5.75 µM]
CCc1ccccc1	-10%
CCn1c(=O)n(CC)c2cc(S(=O)(=O)N3CCOCC3)ccc21	7%

Additional records follow:
SMILES	AmpC inh no det
Clc1ccc(Cc2nn3c(-c4ccncc4)nnc3s2)cc1	20%
CC1=CC(C)(C)Nc2cc(C)c(C)cc21	12%
Cc1nnc(NC(=O)C2CCCN(S(=O)(=O)Cc3ccccc3)C2)s1 (centres undefined)	1%
O=C(NCCN1CCc2ccccc2C1)C1CC(=O)N(C2CCCC2)C1 (centres undefined)	-1%
CCN1C(=O)c2ccc(-c3nc4ccccc4c(=O)o3)cc2C1=O	-7%
CCOC(=O)N1CCC(NC(=O)c2cc(C(=O)Nc3ccc(F)cc3F)ccc2CO)CC1	4%
COCCNC(=O)c1cc2c(=O)n3cccc(C)c3nc2n(Cc2ccncc2)c1=N	2%
CCOC(=O)C1CCN(C(=O)COc2cccc(C)c2)CC1	4%
CN(CCCNC(=O)c1ccc(N2CCCC2=O)cc1)c1ccccc1	32%
CS(=O)(=O)N1CCC(C(=O)Nc2ccc(Br)cc2F)CC1	9%
CCOC(=O)C1C(c2ccc(C)o2)NC(=O)NC1(O)C(F)(F)F (centres undefined)	1%
CCCOc1cc(C)c(S(=O)(=O)n2ccc(C)n2)cc1C	36%
C=CCNC(=O)c1ccc(C(=O)c2ccccc2)cc1	-2%
COCCNC(=O)Cn1cnc2sc(C)c(S(=O)(=O)N3CCC(C)CC3)c2c1=O	-5%
Cc1ccc(-n2c(SCC(N)=O)nc3c([nH]c4ccccc43)c2=O)cc1	7%
c1ccc(-c2nc(NCc3ccco3)c3ccccc3n2)nc1	8%
Brc1cc2[nH]cnc2c2ccccc12	15%
O=c1c2c(nc3nc(COc4ccccc4)[nH]n13)CCC2	28%
COc1ccc(NC(=O)N[C@@H](CCSC)C(=O)O)cc1Cl	-10%
c1ccc(CCN2CCN=C2Cc2ccccc2)cc1	13%[5.75 µM]
Cc1csc(N(C)C(=O)CSc2nnc(COc3ccccc3C)o2)n1	81%
c1ccc2c(c1)OCC(c1nn3c(Cn4nnc5ccccc54)nnc3s1)O2 (centres undefined)	7%
CNC(=O)CSc1nnc(-c2ccco2)n1-c1ccccc1OC	3%
Cc1cc(C(=O)CSc2nnnn2-c2ccc(O)cc2)c(C)n1Cc1ccc2c(c1)OCO2	13µM*
O=C1CC(N2CCC(c3nc4ccccc4[nH]3)CC2)C(=O)N1Cc1ccccc1 (centres undefined)	36%
CC(=O)N1CCN=C1SCc1c(F)cccc1Cl	-10%
O=C(/C=C\c1ccc(O)c(O)c1)O[C@H]1C[C@@](O)(C(=O)O)C[C@H](O)[C@@H]1O	4%
Cc1occc1-c1nnc(SCC(=O)c2ccc(Cl)cc2)n1CC1CCCO1 (centres undefined)	31%
NC(=O)CN1CC(c2ccccc2)CC1=O (centres undefined)	-6%
O=c1c(CCc2ccccc2)nc2cncnc2n1C1CC1	24%
COC(=O)C(C)NC(=O)C(C)NC(=O)OCc1ccccc1 (centres undefined)	-10%
COc1ccc(-c2cc(C(=O)Nc3c(C)nn(Cc4ccccc4)c3C)no2)cc1	30%
CCOC(=O)c1[nH]c2ccc(OC)cc2c1NC(C)=O	1%
CCC(=O)N1CCc2cc(Br)cc(S(=O)(=O)NCC3CCCO3)c21 (centres undefined)	1%
COC(=O)c1ccc(C)c(NC(=O)C2COc3ccccc3O2)c1 (centres undefined)	10%
Cc1cc(C)c2c3c(sc2n1)C1(CCSCC1)C(C#N)=C(N)O3	0%
Cc1ccc(S(=O)(=O)N(C)CC(=O)NC2CCCC2)cc1	6%
O=C(CC1(O)C(=O)N(CN2CCOCC2)c2ccccc21)c1ccccc1 (centres undefined)	16%
Cn1nc(-c2ccc(C(=O)N3CCN(c4ccccc4)CC3)cc2)c2ccccc2c1=O	91%
Cc1ccc(-c2noc(C3CCN(S(=O)(=O)c4ccc5c(c4)OCCO5)CC3)n2)o1	29%
CC1CCCN(C(=O)Cn2nnc(-c3cccnc3)n2)C1 (centres undefined)	7%
O=C(NC(C(=O)c1ccccc1)n1cnccc1=O)c1ccccc1 (centres undefined)	5%
CC(C)(NC(=O)N1CCCC1)c1cccc(C(C)(C)NC(=O)N2CCCC2)c1	4%
CC(C)NC(=O)CN(c1cccc(Br)c1)S(C)(=O)=O	1%
O=C(CSc1nnc(-c2cccs2)n1Cc1ccco1)Nc1ccc2c(c1)OCO2	-16%
c1ccc(CCn2nnnc2C(c2cccnc2)N2CCN(c3nc4ccccc4s3)CC2)cc1 (centres undefined)	113%
Cc1ccc(C)n1-c1ccc(-c2nnco2)cc1	9%
O=C(Nc1ccc2c(c1)OCO2)c1ccc(S(=O)(=O)NCC2CCCO2)cc1 (centres undefined)	-3%
Cn1c(/C=C/N2CCOCC2)c(C(=O)c2ccc(Br)cc2)c(=O)n(C)c1=O	3%
CCOc1ccc(NC(=O)Nc2ccc(N(C)C(C)=O)cc2)cc1	-9%
CCOC(=O)c1c(-c2ccccc2)[nH]c2ccc(O)cc12	-19%
COc1ccc(CCn2c(O)c(C=NCc3ccc4c(c3)OCO4)c(=O)[nH]c2=O)cc1OC	53%
Cc1ccc(C2C(C(=O)c3sc(C)nc3C)=C(O)C(=O)N2CCN2CCOCC2)o1 (centres undefined)	21%
CCN(CC)S(=O)(=O)c1ccc2c(c1)nc(SCC(=O)NC1CC1)n2-c1ccccc1OC	104%
CCn1c(COc2cccc(OC)c2)nnc1SCC(=O)Nc1cc(OC)ccc1OC	74%
Cc1cccc(C(C)(C)C)c1OCCn1ccnc1	24%
CCOC(=O)CSCc1c(C#N)c2ccccc2n1C	16%
CC1Oc2ccccc2N(CC(=O)Nc2ccc3c(c2)OCO3)C1=O (centres undefined)	-18%
COc1ccccc1NC(=O)CC1Nc2ccccc2NC1=O (centres undefined)	-3%
CCCc1nc(Nc2nc3ccccc3o2)nc(C)c1C(=O)OCC	15%

Next entries follow:
SMILES	AmpC inh no det
COc1cccc(NC(=O)C2CCCN2C(=O)OCc2ccccc2)c1 (centres undefined)	9%
Cc1ccc(S(=O)(=O)N2CCC(C(=O)N3CCC(C(=O)NCc4cccnc4)CC3)CC2)cc1	71%
N#CS.N=C=S.N=C=S.[Cu].[NH2-].[NH2-].[NH2-].[NH2-].c1ccc2ncccc2c1	0%[5.75 µM]
CCSC1=C(C#N)C(c2ccc(Cl)cc2)C2=C(CCCC2=O)N1 (centres undefined)	2%
CCOC(=O)c1[nH]nc(C(=O)c2ccc(Br)cc2)c1O	-14%
COc1nc(-c2ccc(C)cc2)ccc1-c1noc(-c2ccco2)n1	15%
CC(CCN)(CCN)[N+](=O)[O-]	6%[5.75 µM]
O=C(c1cccnc1NCc1ccc(F)cc1)N1CCOCC1	7%
